# ugtP null kill – compounds lethal to S. aureus RN4220 ugtP deletion mutant; OD600 growth, 16 h; some inactives read as strong as hits; growth inhibition, % (test concentration not listed); hit rate 0.54% among 330,000;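 active means z-score under -3 and OD600 up to 0.15 on both plates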;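 further: plate controls were untreated wells for no effect and antibiotic for full effect; wells of about 80 µL received 100 nL stock; the first replicate is given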
# BJeLR lethal – BJeLR cell viability loss | BJeLR (HRASV12) viability, CellTiter-Glo ATP luminescence, 48 h; reference of the scale not given here | inhibition, % (test concentration not listed) | hit rate 0.17% among 300,000 | AID 1554;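 active means replicate mean above 50%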;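 further: 50 nL library stock added to about 25 µL; numbers are from one replicate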
# Autofluor counter – flagged as autofluorescent in microsphere protease counterscreen | hit rate 3.1% among 360,000 | compound autofluorescence counterscreen, microsphere flow cytometry; stronger effect = higher value | fluorescence intensity (concentration not given with the values) | AID 624483;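 active means at least 3 SD above the mean of all compounds, about 16000 in these data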;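 further: 100 nL of 1 mM stock went into each well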
# RN4220 kill – S. aureus RN4220 growth inhibition. OD600, 16 h. inhibition, % (concentration not given with the values). hit rate 0.33% among 330,000;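 active means z-score of -3 or lower and OD600 up to 0.18 on both plates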;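 further: plate controls were untreated cells for no effect and reference antibiotic for full effect; stock transfer was 100 nL into about 80 µL; one replicate is shown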
# PrP UTR inh – inhibition of PrP 5' UTR reporter expression. hit rate 0.35% among 340,000. inhibition, % (no concentration beside the values). cell-based PrP 5' UTR mRNA reporter, plate reader. AID 488862;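 active means every replicate at 50% or more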;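 further: 0 = median of the neutral control wells; tested in H4 reporter cells; numbers are from one replicate; inactives centre near -14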
# Mtb hypoxia inh – inhibitors of hypoxia-regulated fluorescent reporter in Mycobacterium tuberculosis; hit rate 0.1% among 300,000; AID 1159583; M. tuberculosis hypoxia-regulated fluorescent reporter, fluorescence; fluorescence inhibition, % (concentration not given with the values);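 active means 35 to 45% if threefold the growth effect, above 45% if 1.5-fold the growth effect; inactive means the rest, general growth blockers included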;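 further: wells of about 50 µL received 100 nL stock; 0% = vehicle wells and 100% = reference inhibitor wells; whole bacteria with a GFP reporter of the hypoxia response; strong numbers were not always called active; many hits fall short of the cut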
# Mtb hypoxia inh growth – recorded beside Mtb hypoxia inh, whose call it bears; growth inhibition, %; measured here: M. tuberculosis growth (absorbance);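 0% = vehicle and 100% = reference antibiotic; read after six days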
# * hit, by the source's call; nt = not tested or not shown; & = joins results of further samples.
SMILES,ugtP null kill,BJeLR lethal,Autofluor counter,RN4220 kill,PrP UTR inh,Mtb hypoxia inh,Mtb hypoxia inh growth
Cc1ccc(N(C(=O)CCC(=O)Nc2ccccn2)C(C(=O)NC(C)C)c2ccc(F)cc2)cc1 (centres undefined),1,3,5582,-2.8,-19,-3,-5
CC(C)CN(CC(C)C)C(=O)Nc1cccc([N+](=O)[O-])c1,-16,-2,5162,-5.7,-23,-5,1
Cc1ccc(C(=O)NNC(=O)C(C)Oc2ccccc2F)cc1S(=O)(=O)N1CCOCC1 (centres undefined),16,5,nt,4.9,-18,6,-10
CC1(C)Cc2ccccc2C(C(=NO)C(N)=O)=N1,-4,nt,nt,-2.7,nt,-7,-3
COc1ccc(-c2nnc(SCC#N)o2)cc1,4,5,3837,6.2,-21,6,7
Cc1ccc(S(=O)(=O)NCCNc2ccc([N+](=O)[O-])cc2C(F)(F)F)cc1,-19,-3,8642,-1.5,-5,0,1
Cc1cc(C(=O)Cn2nc(C(=O)O)c3ccccc3c2=O)c(C)n1-c1ccccc1,3,-18,2484,2.1,-5,nt,nt
CCc1ccc(-c2nc(NC(=S)NC(=O)c3cccs3)sc2C)cc1,33,-7,23514*,0.3,-10,3,-3
COc1ccc(Nc2nc(NCc3ccco3)nc(NN=Cc3ccccc3)n2)cc1,-22,nt,nt,16,nt,8,7
Cc1ccc(C)c(NC(=S)NC(NC(=O)Cc2ccccc2)C(Cl)(Cl)Cl)c1 (centres undefined),-3,-4,2834,-4.5,-7,nt,nt
COc1ccccc1Oc1ccc2c(c1)C(=O)N(c1ccccc1)C2=O,-4,-6,3615,-3.0,-27,0,-1
CC(=NNc1nc(C)c(C)s1)c1cccc([N+](=O)[O-])c1,7,nt,nt,6.3,nt,12,8
CC(=NNC(=O)CNc1ccc(Cl)cc1C)c1ccc(C)cc1,-13,nt,nt,3.6,nt,-2,0
CC(C)N1CCSC1=S,9,nt,4127,7.4,-24,9,9
COCCOC(=O)C1=C(C)NC2=C(C(=O)CC(C)(C)C2)C1c1cccnc1 (centres undefined),-4,2,5831,5.1,-15,6,10
COc1cc(OC)c2c(-c3cccc(-c4ccc(CO)cc4)c3)cc(=O)oc2c1,12,nt,3549,-0.3,29,2,8
COc1ccc(NC(=O)c2ccc(COCC(F)(F)F)cc2)cc1OC,8,-19,1970,0.3,-17,6,-2
CC1=CC(C)C2(CO)COC(c3ccccc3O)C1C2C (centres undefined),-6,-23,3842,4.3,-5,-1,0
Cc1ccc(NCc2nnc3n2CCCCC3)c(C)c1,-11,-3,2114,-6.7,-3,-13,-12
Cc1ccc(C(=O)N(C)CC(=O)Nc2ccc(N3CCOCC3)cc2)s1,0,-2,5066,0.9,-33,12,3
CCCC(=O)NNC(=O)CCC(=O)Nc1ccccc1Cl,3,25,4499,4.4,-13,12,15
CCOc1ccccc1OCC(=O)OCC(=O)c1c(C)[nH]c2ccccc12,1,-17,4284,0.8,-16,7,5
CCc1ccc(OCCCC(=O)NCc2ccccc2)cc1,-2,7,2686,11,-8,14,9
CCCOc1c(Br)cc(/C=N/O)cc1OC,nt,6,2413,nt,-32,nt,nt
O=C(CSc1ccc(Br)cc1)Nc1ccc(N2CCOCC2)cc1,8,3,4167,4.8,-25,3,-14

# Compound profiles, from the list above.
# CCCOc1c(Br)cc(/C=N/O)cc1OC is entered as ugtP null kill: nt; BJeLR lethal: 6; Autofluor counter: 2413; RN4220 kill: nt; PrP UTR inh: -32; Mtb hypoxia inh: nt; Mtb hypoxia inh growth: nt
# Cc1ccc(C)c(NC(=S)NC(NC(=O)Cc2ccccc2)C(Cl)(Cl)Cl)c1 (centres undefined) is entered as ugtP null kill: -3; BJeLR lethal: -4; Autofluor counter: 2834; RN4220 kill: -4.5; PrP UTR inh: -7; Mtb hypoxia inh: nt; Mtb hypoxia inh growth: nt

# (continued)
SMILES,ugtP null kill,BJeLR lethal,Autofluor counter,RN4220 kill,PrP UTR inh,Mtb hypoxia inh,Mtb hypoxia inh growth
COc1ccc(N2CCN(C(=O)CSc3nnc(-c4cc5ccccc5cc4O)n3C)CC2)cc1,-14,1,16210*,7.8,-18,0,8
OCCCNC(=S)NC1CCCC1,3,-3,2618,-0.4,-15,17,-2
Cc1cc(=O)[nH]c2cc(O)ccc12,3,-12,7790,1.6,-2,13,4
COc1cc(O)cc2c1C(=O)O[C@@H](C)CCCC(=O)CCCCC2,15,4,3495,5.3,2,-11,1
CN1C(=O)c2ccccc2N(C)C1c1cccc(O)c1 (centres undefined),nt,0,4387,nt,-27,nt,nt
Cc1cccc(C(=O)OCC(=O)c2ccc3c(c2)NC(=O)CO3)c1,4,nt,3343,7.4,-29,15,12
N#C/C(C(N)=O)=C1/CCCN1Cc1ccccc1,-8,-5,3962,-3.0,nt,-2,-6
Cc1ccc(CN2C(=O)N/C(=C/c3ccc(-c4ccc(C(=O)O)cc4)o3)C2=O)cc1,-3,-3,6454,-2.1,-34,-7,12
CCN1CCN(CC(=O)Nc2cc(C)c(C)cc2[N+](=O)[O-])CC1,3,0,2658,9.2,-29,3,-1
Cc1noc(C)c1C(=O)OCC(=O)c1ccc[nH]1,-3,16,3747,5.8,-8,17,10
CC(C)Oc1ccc(CN=C(N)N=C(N)N)cc1Cl,-3,6,6899,7.4,-6,-5,-2
Cc1nn(C)c(Cl)c1CN1CCN(CCC(C)C)C(CCO)C1 (centres undefined),2,10,4060,3.9,-20,13,0
Cc1ccc(CNC(=O)c2ccc(CS(=O)(=O)c3ccccc3C)o2)cc1,7,4,5573,5.4,-23,15,3
CC(=O)Nc1nc(C)c(Oc2ccc(Cl)cc2Cl)c(=O)[nH]1,-3,-7,3165,3.0,-13,10,5
Cc1c(NS(=O)(=O)c2cccc(C(=O)N3CCC(C)CC3)c2)c(=O)n(-c2ccccc2)n1C,1,nt,3609,1.2,-28,7,6
Cc1cc(C)n(CCNC(=O)CC2C(=O)NCCN2Cc2ccccc2C(F)(F)F)n1 (centres undefined),6,8,4506,2.8,-24,5,2
COc1ccc2c(c1)C(c1ccc(C)o1)=NNC(c1cccnc1)=N2,8,-6,4282,-3.5,-33,13,5
COc1cc(C(=O)OCc2ccc(C)cc2)cc(NC(=O)c2cccs2)c1OC,-9,-2,2610,2.8,-1,4,-2
O=C(CSCc1cccc(Cl)c1)N/N=C/c1ccc(OCC(=O)N2CCCCC2)cc1,nt,16,8410,nt,-19,nt,nt
CN(C)S(=O)(=O)c1ccc(NC=O)cc1,5,-9,4280,5.5,-4,3,1
Cc1ccc(-n2c(C)nnc2SCC(=O)N2CCOCC2)cc1,3,4,2749,3.6,-19,8,-2
CCOC(=O)C1=C(COC(=O)COc2ccccc2C(C)C)NC(=O)NC1C (centres undefined),6,nt,nt,8.3,-18,2,0
CN(Cc1ccon1)Cc1cn(C)nc1-c1ccc2c(c1)OCCO2,4,1,3999,3.8,-5,12,7
COCC(C)n1c(C)cc(C(=O)COc2ccc(N(C)S(=O)(=O)c3ccc(NC(C)=O)cc3)cc2)c1C (centres undefined),-5,nt,5097,2.9,-30,-6,16
Cc1ccnc(N2CCCC(C(=O)Nc3cccc(C)c3C)C2)n1 (centres undefined),7,-6,3588,6.2,-13,6,-1

# Laid out differently: entries from further up
structure	ugtP null kill	BJeLR lethal	Autofluor counter	RN4220 kill	PrP UTR inh	Mtb hypoxia inh	Mtb hypoxia inh growth
COc1ccc(N2CCN(C(=O)CSc3nnc(-c4cc5ccccc5cc4O)n3C)CC2)cc1	-14	1	16210*	7.8	-18	0	8
OCCCNC(=S)NC1CCCC1	3	-3	2618	-0.4	-15	17	-2

# Next structures:
SMILES,ugtP null kill,BJeLR lethal,Autofluor counter,RN4220 kill,PrP UTR inh,Mtb hypoxia inh,Mtb hypoxia inh growth
CC(C)C(=O)Nc1nnc(SCc2cccc(F)c2)s1,-9,-7,4293,9.1,-26,9,4
CCN1C(=O)C2C(c3ccc(-c4ccccc4)cc3)N3CCCC[C@@]3(C(=O)OC)C2C1=O (some centres undefined),3&7,nt,nt,2.6&-4.1,nt,14&16,15&7
Cc1ccc(N2C(=O)CC(Sc3ncccc3C(=O)O)C2=O)cc1 (centres undefined),6,-5,4146,5.8,-46,11,4
C=CCOC(=O)C1=C(C)NC(=O)NC1c1cc2c(cc1Br)OCO2 (centres undefined),4,-6,3996,8.3,-9,17,10
CC1(C)CC(=O)C2=C(C1)N(Cc1ccco1)C(=O)C2(NC(=O)c1cccnc1)C(F)(F)F (centres undefined),0,5,20736*,3.0,-17,11,9
CCOc1ccccc1NC(=O)/C(C#N)=C/c1cccnc1,-9,-6,6005,-2.9,-8,-7,4
CNC(=O)COC(=O)c1ccc(NC(=O)CC#N)cc1,5,-1,2736,3.2,-21,nt,nt
CCOC(=O)/C(C#N)=C1/C=CN(C)C(C)=N1,-3,12,9944,-3.3,10,-2,6
Cc1ccc2nc(SCc3nc4ccccc4c(=O)[nH]3)[nH]c2c1,-1,7,2190,1.6,-58,-3,-9
CCCCn1c(SCC(=O)NC2CC2)nc2ccccc2c1=O,3,5,5551,0.5,-4,-5,0
Cn1c(N)c(C(=O)COC(=O)C2(c3cccc(F)c3)CCCC2)c(=O)n(C)c1=O,2,0,2722,6.0,-16,9,3
O=C(COc1ccc2ccc(=O)oc2c1)OCc1ccccc1,-1,0,2301,6.0,-24,-6,-5
Cc1nn(-c2ccc(F)cc2)c(Cl)c1/C=C/C(=O)N1CCNC(=O)C1,6,2,4335,4.2,-26,12,6
COc1cccc(C(=O)N(C)CC(=O)Nc2ccc(F)c(F)c2F)c1,3,-1,2882,2.8,-25,-7,-9
COc1ccc2[nH]c3nc(SCc4nnc(-c5ccc(C)cc5)o4)nnc3c2c1,-7,-6,9525,3.6,-13,5,11
Cc1ccc(-c2noc(CSc3nnc(-c4cccs4)n3C)n2)cc1,0,10,9701,2.0,-19,18,10
CC(/C=C/c1ccco1)=N\NC(=O)c1cc(C)[nH]n1,nt,10,23188*,nt,-6,nt,nt
CCCCn1c(N)c(-c2nc3ccccc3s2)c2c([N+](=O)[O-])nn(CC)c(=O)c21,-29,6,11233,0.5,-2,1,-6
CCOC(=O)C1C(=O)OC2(CCCC2)C1C(=O)OCC (centres undefined),-4,nt,10747,6.0,-18,8,11

# Molecules above that have a COOH group (three):
SMILES,ugtP null kill,BJeLR lethal,Autofluor counter,RN4220 kill,PrP UTR inh,Mtb hypoxia inh,Mtb hypoxia inh growth
Cc1cc(C(=O)Cn2nc(C(=O)O)c3ccccc3c2=O)c(C)n1-c1ccccc1,3,-18,2484,2.1,-5,nt,nt
Cc1ccc(CN2C(=O)N/C(=C/c3ccc(-c4ccc(C(=O)O)cc4)o3)C2=O)cc1,-3,-3,6454,-2.1,-34,-7,12
Cc1ccc(N2C(=O)CC(Sc3ncccc3C(=O)O)C2=O)cc1 (centres undefined),6,-5,4146,5.8,-46,11,4

# Rewritten with tabs: part of the list above.
SMILES	ugtP null kill	BJeLR lethal	Autofluor counter	RN4220 kill	PrP UTR inh	Mtb hypoxia inh	Mtb hypoxia inh growth
Cc1ccc(C(=O)N(C)CC(=O)Nc2ccc(N3CCOCC3)cc2)s1	0	-2	5066	0.9	-33	12	3
CCCC(=O)NNC(=O)CCC(=O)Nc1ccccc1Cl	3	25	4499	4.4	-13	12	15
CCOc1ccccc1OCC(=O)OCC(=O)c1c(C)[nH]c2ccccc12	1	-17	4284	0.8	-16	7	5

# Screening results as filed in PubChem BioAssay.

# This is a random part of the collection; any-hit rate near 4%.
